Mtb growth – Mycobacterium tuberculosis H37Rv growth inhibition, cell based, confirmatory dose response (AID 1949) | M. tuberculosis H37Rv growth inhibition | most inactive calls were filed without a number and no value below 0 was filed | inhibition, % at 10 µg/mL; hits with a dose series show IC50 in µg/mL | 100,000 tested, 1.6% active;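 active means confirmed in a dose series; inconclusive means about 50% or more but not retested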;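 further: bacteria grown 7 days with compound before Alamar blue readout; 0% = untreated bacteria and 100% = reference antibiotic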
Starred values were filed as active, the others as inactive; i = inactive; ? = inconclusive. These rows are one share of the data, so the mix of outcomes need not match the whole.

Molecule | Mtb growth
O=C(c1ccc(Cn2cc(Cl)cn2)cc1)N1CCN(c2ccccc2)CC1 | i
CCOC(=O)c1cnc2cc(OC(=O)c3ccccc3)nn2c1C | i
O=C(NCc1ccco1)Nc1ccc2nsnc2c1 | 0.9%
CC(C)NC(=O)c1ccccc1NC(=O)C1COc2ccccc2O1 (stereo unspecified) | i
Cc1ccc(-c2nn(CCC#N)cc2C#N)cc1 | i
COc1ccc(-c2nc3ccccc3o2)cc1NC(=O)CC12CC3CC(CC(C3)C1)C2 | 2.4%
O=S(=O)(Nc1ncccn1)c1ccc(NC(=S)NCc2ccccn2)cc1 | i
CN(C1=NC(=O)C(CC(=O)O)S1)c1ccc(O)cc1 (stereo unspecified) | i
O=C(CNS(=O)(=O)c1ccccc1)NCC1CCCO1 (stereo unspecified) | i
CCCCC(CC)C(=O)Nc1ccc(S(=O)(=O)NC(C)(C)C)cc1 (stereo unspecified) | i

Going on with the list.
Molecule | Mtb growth
C=CCNCCCCOc1ccc(Cl)c(Cl)c1 | 3.4%
Cc1ccc(-n2c(SCC(=O)Nc3ccccc3C(C)C)nnc2-c2ccc(Cl)cc2)cc1 | i
O=S1(=O)c2cccc3cccc(c23)N1Cc1cccc(Cl)c1 | 2.2%
Cc1c(C(=O)Nc2nnc(SCc3ccccc3F)s2)oc2ccccc12 | i
OC(CNC1CCCC1)COc1ccc(-c2ccccc2)cc1 (stereo unspecified) | 35.6%
O=C(Oc1ccc2c(=O)c(-c3ccccc3)coc2c1)c1cc2ccccc2oc1=O | i
Cc1ccc(S(=O)(=O)NC(=O)Nc2ccc(Cl)cc2)cc1 | i
CC(C)(C)NCCCCOc1ccc(OCc2ccccc2)cc1 | i
COC(=O)Cn1c2ccc(Br)cc2c2nc3ccccc3nc21 | i
O=C(CCSc1nnc2ccccn12)Nc1nc(-c2ccccc2)ns1 | i

(continued)
Molecule | Mtb growth
CCOc1cc(C2C(C(=O)OCC3CCCO3)=C(C)NC3=C2C(=O)CC(C)(C)C3)cc(Cl)c1O (stereo unspecified) | i
CCOC(=O)C1CCN(C(=O)COc2ccc(C)cc2)CC1 | 0.3%
CCC(C)Oc1ccc(C(=O)NC(=S)Nc2ccc3c(c2)COC3=O)cc1 (stereo unspecified) | 0.55µg/mL*
Cc1sc2ncn(CC(=O)Nc3ccc(F)c(Cl)c3)c(=O)c2c1C | i
COc1ccc(S(=O)(=O)Nc2cccc(C(=O)O)c2)cc1[N+](=O)[O-] | i
COc1ccc(NC(=O)C(C)Sc2nc(N)cc(N)n2)cc1 (stereo unspecified) | i
CC(C)CCNS(=O)(=O)c1ccc2c(c1)C(O)c1cc(S(=O)(=O)NCCC(C)C)ccc1-2 | i
Cc1c(C)c2cc(Cl)c(OCc3ccc([N+](=O)[O-])cc3)cc2oc1=O | i
COc1ccccc1OCCn1c(=O)oc2ccc(C)cc21 | 0.6%
CC(=O)Nc1ccc(NS(=O)(=O)c2cc(C(C)(C)C)cc(C)c2C)cc1 | 2.5%

Going on with the list:
Molecule | Mtb growth
O=C(COc1ccc(Cl)cc1Cl)Nc1ccccn1 | 10.5%
Cc1cc(C)cc(COc2ccc3c(C)c(CC(=O)O)c(=O)oc3c2C)c1 | i
COc1cc(C2CC(=O)C3=C(C2)Nc2ccccc2NC3c2ccc(Cl)cc2)cc(OC)c1OC (stereo unspecified) | 5.9%
O=C1CCCC(O)=C1C=Nc1ccc(O)cc1 | i
O=C(NC(=S)Nc1ccc(-c2cc3ccccc3oc2=O)cc1)c1cc(Br)ccc1Cl | 1.2%
Clc1ccc(-c2csc(N3CCOCC3)n2)c(Cl)c1 | i
O=C(O)C1CCCCC1C(=O)NC1CCCC1 (stereo unspecified) | i
CCc1cccc(NS(=O)(=O)c2ccc(OC)cc2)c1 | i
COc1ccc(C(=O)Nc2ccc(Br)cc2)cc1Cl | i
COc1ccc(Br)cc1C(=O)Nc1cccc(C(=O)O)c1 | i

Other results:
Molecule | Mtb growth
COc1ccc(-c2cc(-c3ccc(C)cc3)nc(N3CCOCC3)n2)cc1 | i
O=C(Nc1ccc(F)cc1)c1ccc(CN2CCc3ccccc3C2)cc1 | 2.5%
CCc1ccc2[nH]c3nc(C)cc(C)c3c(=O)c2c1 | 11.4%
Cc1ccc(NC(=O)c2ccc(-c3ccc(Cl)cc3)o2)cc1-c1nc2ncccc2o1 | i
CC(C)OC(=O)Cn1cnc2scc(-c3ccc(Cl)cc3)c2c1=O | 35.0%
CSc1ccccc1NS(=O)(=O)c1ccc(Br)cc1 | i
O=C(Nc1ccc(Br)cc1C(=O)O)c1ccc(NC(=O)c2ccco2)cc1 | i
COc1ccc(-c2nc(C#N)c(NCCN(C)C)o2)cc1 | i
Cc1ccc(C)c(NS(=O)(=O)c2cccc3ccccc23)c1 | i
N#Cc1ccc(CSc2nc3ccccc3o2)c(Cl)c1 | i

Next compounds.
Molecule | Mtb growth
COc1ccc(NC(=S)Nc2ccccc2Sc2ccc(Cl)cc2)cc1OC | i
O=C(COc1ccc(S(=O)(=O)NC2CCCCC2)cc1)NC1CCCCCC1 | i
COc1ccc(C(=O)N2CCc3ccccc32)cc1Br | 2.6%
Cc1nnc(SCC(=O)c2c(C)[nH]c3ccccc23)s1 | i
COc1ccc(-c2noc(COc3ccc(C(C)(C)C)cc3)n2)cc1 | 8.8%
Cc1cccc(NC(=O)c2ccc(NC(=O)C3(c4ccccc4)CCOCC3)cc2)c1 | i
CCOc1cc(CN2CCN(S(=O)(=O)c3ccc(OC)cc3)CC2)ccc1OC | i
Cc1cc(C)c(NC(=O)C(C)Sc2nnc(-c3ccccc3)n2-c2ccccc2)c(C)c1 (stereo unspecified) | i
CCOc1ccccc1NC(=O)Nc1ccn(Cc2ccccc2C)n1 | 3.0%
COC(C(=O)Nc1cccc([N+](=O)[O-])c1)c1ccccc1 (stereo unspecified) | i

Part of the list above in order of SMILES length, highest first:
Molecule | Mtb growth
Cc1cccc(NC(=O)c2ccc(NC(=O)C3(c4ccccc4)CCOCC3)cc2)c1 | i
COc1ccc(NC(=S)Nc2ccccc2Sc2ccc(Cl)cc2)cc1OC | i
COC(C(=O)Nc1cccc([N+](=O)[O-])c1)c1ccccc1 (stereo unspecified) | i
CCOc1ccccc1NC(=O)Nc1ccn(Cc2ccccc2C)n1 | 3.0%
Cc1nnc(SCC(=O)c2c(C)[nH]c3ccccc23)s1 | i
COc1ccc(C(=O)N2CCc3ccccc32)cc1Br | 2.6%

The main list resumes, starting seven compounds before the break.
Compound	Mtb growth
Cc1nnc(SCC(=O)c2c(C)[nH]c3ccccc23)s1	i
COc1ccc(-c2noc(COc3ccc(C(C)(C)C)cc3)n2)cc1	8.8%
Cc1cccc(NC(=O)c2ccc(NC(=O)C3(c4ccccc4)CCOCC3)cc2)c1	i
CCOc1cc(CN2CCN(S(=O)(=O)c3ccc(OC)cc3)CC2)ccc1OC	i
Cc1cc(C)c(NC(=O)C(C)Sc2nnc(-c3ccccc3)n2-c2ccccc2)c(C)c1 (stereo unspecified)	i
CCOc1ccccc1NC(=O)Nc1ccn(Cc2ccccc2C)n1	3.0%
COC(C(=O)Nc1cccc([N+](=O)[O-])c1)c1ccccc1 (stereo unspecified)	i
Cc1nnc(NC(=O)C(C)Oc2ccc3c(C)cc(=O)oc3c2)s1 (stereo unspecified)	i
Clc1ccc2c(c1)ncn2Cc1ccco1	1.3%
CCC(=O)Nc1sc2c(c1C#N)CC(C)(CC)OC2 (stereo unspecified)	i
CCOc1ccc(-c2nnc(Nc3ccc(OCC(=O)NC)cc3)c3ccccc23)cc1	i
Cc1coc(C)c1C(=O)CC1(O)C(=O)N(Cc2ccccc2)c2ccccc21 (stereo unspecified)	2.1%
CCC(CC)C(=O)Nc1cccc(C(=O)Nc2ccccc2C(=O)NC(C)C)c1	i
CCOC(=O)c1c(NC(=O)COc2c(C)ccc(C)c2C)sc(C)c1C	i
Cc1cc(C)cc(NC(=O)Cn2nnc(-c3ccccc3F)n2)c1	i
O=C1CCCC2=C1C(c1ccc(Cl)cc1)C1C(=O)c3ccccc3C1=N2 (stereo unspecified)	7.8%
O=S(=O)(Nc1ccccc1)c1ccc2oc3ccc(S(=O)(=O)Nc4ccccc4)cc3c2c1	i
COc1ccc(C(=O)N2CCOCC2)cc1S(=O)(=O)N1CCC(C)CC1	i
O=C(Nc1ccccc1Br)C1CC(=O)N(c2ccc(Cl)cc2)C1 (stereo unspecified)	i
O=C(C(=O)N1CCN(Cc2ccc3c(c2)OCO3)CC1)N1CCCCC1	i
C=CCn1c(SCC(=O)O)nnc1-c1cc(Br)ccc1O	i
COc1ccc(NC(=O)CN2C(=O)c3cccc4cccc2c34)cc1	i
CCc1ccc(C(=O)NCCCN2CCOCC2)cc1	i
Cc1cc(C)c(C#N)c(SCC(=O)NC(C)c2ccccc2)n1 (stereo unspecified)	i
c1ccc(-c2cc(-c3ccccc3)on2)cc1	i
O=C(COc1cccc(NC(=O)C(F)(F)C(F)F)c1)N1CCOCC1	i
COc1cc(NC(=O)c2ccccc2F)ccc1NC(=O)c1ccccc1Cl	i
COc1ccc(NC(=O)CSc2cc(C)c3ccccc3n2)cc1	i
CN1C(=O)c2ccc(NC(=S)NC(=O)c3ccc(C(C)(C)C)cc3)cc2C1=O	9.7%
O=C(CN(c1cccc(Cl)c1Cl)S(=O)(=O)c1ccccc1)N1CCN(c2cccc(Cl)c2)CC1	6.9%
c1cncc(CNc2ccc3c(c2)oc2ccccc23)c1	?
Cc1ccc(-c2nc(C#N)c(N3CCCCC3)o2)cc1	19.9%
COCCCN1C(=O)c2ccc(C(=O)OCc3cccc(Br)c3)cc2C1=O	1.0%
COc1cc2c(cc1NC(=O)CSc1ccccc1)oc1ccccc12	i
COc1ccc(NC(=S)Nc2cccc(Cl)c2)cc1OC	0.1%
Cc1ccc(-c2nc3cc(Cl)cc(Cl)c3o2)cc1NC(=O)c1ccco1	i
C=CCn1c(SCC(=O)Nc2ccc(Cl)c(Cl)c2)nnc1-c1ccccc1Cl	2.6%

Following part:
Compound	Mtb growth
C=COCCNC(=S)N1CC2CC(C1)c1cccc(=O)n1C2 (stereo unspecified)	0.6%
COc1ccc(S(=O)(=O)N2CCCC(C(F)(F)F)C2)cc1 (stereo unspecified)	i
Cc1nnc2sc(-c3ccc(Cl)c(N)c3)nn12	i
CCCCOc1ccc(C(=O)Nc2cccc(C)c2C)cc1	i
O=C(NNC(=S)NCC1CCCO1)c1cc(Br)ccc1Cl (stereo unspecified)	i
Cc1ccc2nc(/C(C#N)=C\c3ccc(O)c(I)c3)[nH]c2c1	0.6%
COc1cccc(OC)c1C(=O)NC(=S)NCc1cccnc1	i
S=c1[nH]nc(-c2ccccc2Br)n1Cc1ccccc1	i
O=C(Nc1ccccc1C(=O)Nc1cccc([N+](=O)[O-])c1)c1ccco1	i
CCn1nnnc1-c1ccc(OC)c(S(=O)(=O)Nc2ccc(C)cc2C)c1	i
CC1=C(C(=O)Nc2ccccc2)C(c2ccc(F)cc2)C2=C(CCCC2=O)N1 (stereo unspecified)	1.8%
CC(C)(C)OC(=O)COc1cc2oc(=O)cc(-c3ccccc3)c2cc1Cl	i
CCc1ccc2[nH]c(C)c(CN(C)C3CCN(C)CC3)c(=O)c2c1	i
COc1ccccc1N1CCN(C(=O)COc2ccccc2C)CC1	i
O=C(COc1ccc(S(=O)(=O)NCCc2ccccc2)cc1)NCc1ccco1	i
CC(C)Oc1cccc(-c2cc(C(=O)NC3CCN(C)CC3)c3ccccc3n2)c1	i
CC(=O)N(C)c1ccc(NC(=O)COc2c(C)cc(Br)cc2C)cc1	i
Cc1ccc(CNC(=S)Nc2cc(C(=O)O)ccc2C)cc1	4.2%
O=C(c1cc(-c2ccc(Cl)s2)nc2ccccc12)N1CCN(c2ccc([N+](=O)[O-])cc2)CC1	i
Cc1ccc(-c2noc(CN(C(=O)c3ccc([N+](=O)[O-])cc3)C(C)C)n2)cc1	i
Cc1ccc(C(C)C)c(OCC(O)CN2CCC(C)CC2)c1 (stereo unspecified)	i
O=C(Nc1ccc(Cl)c(Cl)c1)c1ccc2c(=O)n(-c3ccccc3)c(=O)[nH]c2c1	i
CC1CCN(c2ccc(C(=O)N3CCOCC3)cc2[N+](=O)[O-])CC1	i
Fc1ccc(OCCCN2CCCCC2)cc1	i
CCCOc1c(Br)cc(CNCCCN2CCOCC2)cc1OCC	i
Nc1c(N2CCCC2)c2ccccc2oc1=O	i
CC1=C(C(=O)Nc2ccc(F)cc2)C(c2ccccc2Br)NC(=O)N1 (stereo unspecified)	i
COc1ccc2c(c1)C(NC(C)=O)C(=O)N2Cc1ccccc1 (stereo unspecified)	i
Cc1cc(OCc2c(F)cccc2Cl)c2c(C)c(C)c(=O)oc2c1	2.8%
CNCCOc1c(Cl)cc(C)cc1Br	i

(continued)
Compound	Mtb growth
Cc1ccc(N(C)C(=O)N2CCN(c3ccc(C)c(C)c3)CC2)cc1	i
C=C(C)CSc1nc(C)c(Cc2ccccc2)c(=O)[nH]1	i
COc1ccc(COC(=O)C2=C(C)NC3=C(C(=O)CC(C)(C)C3)C2c2coc3ccccc3c2=O)cc1 (stereo unspecified)	i
Cc1cccc(Cn2c(C(C)C)nc3ccccc32)c1	2.3%
CCS(=O)(=O)NCCCc1ccccc1	1.1%
COc1ccc(CSc2nnc(SCc3cccc(OC)c3)s2)cc1	4.4%
CC(=O)c1cccc(NC(=O)CSCc2c(F)cccc2Cl)c1	i
Cc1cc(C)c(NC(=O)CSc2nncn2C)c(C)c1	i
COC(=O)c1ccc(CSc2nc(N)cc(N)n2)cc1	1.7%
O=[N+]([O-])c1ccc(CN=C(NC(=S)N(c2ccccc2)c2ccccc2)c2ccccc2)cc1	2.8%
O=S(=O)(c1ccc(N2CCOCC2)nc1)N(Cc1ccccc1)Cc1ccccc1	2.3%
COC(=O)c1c(N)sc(C)c1-c1ccc(F)cc1	13.1%
CCOC(=O)c1sc2nc(C)cc(C)c2c1N(C(C)=O)C(C)=O	i
O=C(Nc1ccccc1C1CC1(Cl)Cl)c1ccccc1Cl (stereo unspecified)	i
O=C(CN1C(=O)C2CC=C(Cl)CC2C1=O)N1CCCCC1 (stereo unspecified)	i
